# HEK293 NFkB inh: lowers PMA/ionomycin-induced NF-kB signal in HEK293 cells | HEK-293 NF-kB luciferase reporter, luminescence | actives 0.21% (n = 62,000) | inhibition, % at 3 µM | AID 465;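 active means inhibition above the mean of all tested compounds plus 3 SD, cut at about 40% in these data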;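 further: 0% = stimulated DMSO wells and 100% = 10 µM reference inhibitor 5653914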
#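 Timing: 1 h pretreatment, 16 h stimulation, 37 °C; system: HEK-293 cells with stable firefly luciferase reporter driven by four HIV NF-kB elements; doses: 3 µM once, 0.30% DMSO; measured by: luciferase luminescence; control set: DMSO and 10 µM reference inhibitor; repeats: single test; reagent: PMA plus ionomycin mix as NF-kB-activating stimulus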
# PKA inh: blocks human protein kinase A activity; P17612; PKA Kemptide phosphorylation, Kinase-Glo ATP luminescence; inhibition, % at 6 µM; actives 0.1% (n = 65,000); AID 524;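 active means inhibition above the screen-wide mean inhibition plus 3 SD, cut at about 21% in these data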; further: many of its hits are not listed in these tables
# ROCK2 inh: ROCK2 (human) kinase inhibition; O75116; purified ROCK2, Kinase-Glo ATP depletion luminescence; inhibition, % at 6 µM; actives 0.35% (n = 60,000);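 active means inhibition above the screen-wide mean inhibition plus 3 SD, cut at about 18% in these data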;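 further: plate controls were DMSO wells for no effect and Y-27632 control wells after no-enzyme background subtraction for full effect; many of its hits are not listed in these tables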
# A340 absorber: compounds absorbing at 340 nm; compound absorbance at 340 nm, fold over control; fold change at 10 µM; 65,000 tested, under 10 active;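 active means at 10 µM dose, initial 340 nm absorbance at least 2 fold that of control wells; inactive means change under 2 fold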;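 further: initial absorbance extrapolated from kinetic A340 decline of NADH oxidation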
# JNK3 inh: blocks human JNK3 kinase activity; purified JNK3 kinase activity, HTS; actives 0.61% (n = 60,000); inhibition, % at 8 µM; P53779; AID 746; in the data active means inhibition above about 17%;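 further: 0% = DMSO and 100% = reference inhibitor; many of its hits are not listed in these tables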
# MMP13 inh: inhibitors of human MMP13. actives 0.07% (n = 65,000). inhibition, % at 4 µM. MMP-13 fTHP FRET cleavage, Mca fluorescence. P45452. AID 570;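 active means inhibition above the mean of compound-free control plate wells plus 3 SD, cut at about 14% in these data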;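 further: 0% = DMSO wells and 100% = wells with reference MMP-13 inhibitor after basal subtraction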
# Fluor 339 460: intrinsic fluorescence of library compounds, ex339/em460 – biochemical, MLSMR library, data from DPM-DC assay, artefact control, profiling panel | compound autofluorescence, ex339/em460 nm, NADH buffer; stronger effect = higher value; 1 = no-compound wells, NADH background | fluorescence fold increase at 10 µM | actives 5.5% (n = 65,000);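 active means at 10 µM, mean starting fluorescence two-fold or more over control wells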;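 further: signal is the first read of a kinetic run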
# Ecoli tolC: blocks growth of E. coli BW25113 tolC mutant; OD615; growth inhibition, % at 10 µM (by protocol); actives 2.2% (n = 65,000); AID 573;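 active means growth inhibition at or above a cutoff equal to the mean over every tested compound plus 3 SD, cut at about 60% in these data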;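 further: growth measured after 20 h incubation at 37 °C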
#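 Signal: optical density read at 615 nm; Assay system: E. coli ΔtolC::kan strain BW25113; Times: 20 h incubation with compound, 37 °C; Dosing: 10 µM final, single dose.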
# * marks the source's active call; other numbers are inactive results; . = no result given. An excerpt; the hit share may differ from the screen's.
SMILES,HEK293 NFkB inh,PKA inh,ROCK2 inh,A340 absorber,JNK3 inh,MMP13 inh,Fluor 339 460,Ecoli tolC
NC(=O)c1ccccc1NS(=O)(=O)c1cccs1,2,6,5,1.1,4,-6,1.3,2
CCOc1ccc(OCC)c(NC(=O)C2CCN(S(=O)(=O)c3cnc[nH]3)CC2)c1,6,-2,0,0.99,-1,0,1,-24
COc1ccccc1N1CCN(C(=O)CSc2nnc(-c3ccoc3C)o2)CC1,4,-5,-2,0.99,-7,5,1.1,15
O=C1c2cccnc2C(O)N1Cc1ccco1 (stereo not given),3,12,10,1,5,5,1.1,-11
O=C(NC1CCCCC1)Sc1ccc(Cl)cc1,4,8,0,0.92,15,0,1.1,12
CCn1ccc(C(=O)Oc2ccc(C(C)C)cc2)n1,7,4,3,1,-7,2,1,16
COc1ccc(C(=O)N2CCOCC2)cc1Br,14,9,7,1,5,0,1.1,-10
COc1cccc2c(=O)cc(C)n(CC(=O)Nc3ccc(C)c(C)c3)c12,14,-5,2,0.99,0,-8,1.1,28
CS(=O)(=O)N(CC(=O)N1CCN(c2ccccc2)CC1)c1cc(C(F)(F)F)ccc1Cl,.,.,.,1,.,.,1.1,4
O=C(CCS(=O)(=O)c1ccc(Br)s1)N1CCc2ccccc21,1,8,7,1,1,0,1.1,20
CCCCn1nnnc1SCC(=O)Nc1cccc(C)n1,16,-3,-3,0.98,1,-3,1,-11
Cn1c(N)c(C(=O)COC(=O)Cc2ccsc2)c(=O)n(C)c1=O,17,9,.,0.99,.,4,1.1,-8
CCOC(=O)c1ccc(NC(=O)CSCc2ccco2)cc1,-8,3,3,0.98,-1,2,1,5
CCN(CC)CCOc1ccc(Br)cc1,3,9,6,1.1,-1,4,1.1,-9
COC(=O)CSC1=C(C#N)C(c2ccc(C(C)C)cc2)CC(=O)N1 (stereo not given),15,-2,4,1,0,0,1.1,0
c1coc(-c2nnc3n2C2(CCCC2)Cc2ccccc2-3)c1,23,8,5,1,4,-5,1.1,7
CCOC(=O)C1=C(CNC2CCCCC2)NC(=O)NC1c1cc(C)ccc1C (stereo not given),15,3,6,1,1,0,1.1,5
N#CC1=C(N)Oc2n[nH]c(-c3cccs3)c2C1c1ccoc1 (stereo not given),18,10,3,1,3,-2,1.1,13
Cc1ccc(C(=O)COC(=O)CNC(=O)c2ccco2)cc1,20,11,5,1,-3,0,1,-15
CC(=O)c1cccc(NC(=O)CSc2nnc(-c3ccc(S(=O)(=O)N4CCCC4)cc3)o2)c1,9,3,-2,1,5,4,1.1,3
CSc1nc(SCC(=O)NCc2ccco2)c2c3c(sc2n1)COC(C)(C)C3,26,-4,.,1.1,.,-7,1.4,18
C=C(C)Cn1c(N2CCN(CC)CC2)nc2c1c(=O)[nH]c(=O)n2C,.,.,.,0.98,.,.,1,-5
CCCC(=O)Nc1ccc(Cl)c(NC(=O)CC)c1,-1,0,-1,1,-7,4,1.1,-12
Cc1occc1C(=O)N1CCCc2ccccc21,22,2,1,1,-6,2,1.1,-6
CCCCSc1nnc([C@@H](NC(=O)OC(C)(C)C)C(C)C)o1,9,-2,4,1,1,1,1.1,13
CCCN(CCC)CCNC(=O)CS(=O)Cc1nc(-c2ccc(C)cc2)oc1C (stereo not given),11,-4,-2,1,2,-2,1.1,-14
CCOc1ccc(OCCCCN(C)C)cc1,6,8,6,1.1,2,-7,1,3
O=C(Nc1cccc(F)c1)C1CCCN1S(=O)(=O)c1cccc2cccnc12 (stereo not given),-6,5,4,1,-3,2,1.1,-9
O=C(Oc1cccc(N2C(=O)CCC2=O)c1)C1CC(=O)N(c2ccc(F)cc2)C1 (stereo not given),16,4,-5,1,3,3,1.1,7
Cc1cc(C)cc(OCC(=O)NCC2CCCO2)c1 (stereo not given),.,.,.,1,.,.,1.1,-13
O=C(C1CCCCC1)N1CCCn2c1nc1ccccc12,.,3,-6,1,0,4,1.1,8
CCC(c1nnc(SCC(=O)Nc2nnc(-c3ccccc3)o2)o1)N(C)C (stereo not given),7,4,6,1,1,-2,1.1,-10
Cc1ccc2nc(-c3ccccc3)cc(C(=O)O)c2c1,-12,5,4,1.1,1,-3,1.2,-4
Nc1nnc(SCCOc2ccc(Br)cc2)s1,-6,8,2,1,2,4,1.1,12
Cc1ccc(S(=O)(=O)N2CCN(C(=O)COC(=O)c3cc(C)oc3C)CC2)cc1,5,-2,-5,0.98,-8,-4,1.1,-28
CCC(=O)N1c2ccccc2[C@@H](N(C(C)=O)c2ccccc2)C[C@H]1C,23,-2,-2,1,6,4,1.1,8
COc1ccc(C(=O)NCCNC(C)=O)cc1S(=O)(=O)NCc1ccc(Cl)cc1,16,10,5,0.99,-5,-7,1.1,-8
COCCNC(=O)C(c1ccccc1C)N(CCOC)C(=O)Cn1nnc2ccccc21 (stereo not given),13,-1,-1,1,-5,0,1.1,-7
Cc1ccc(C(=O)CC(C(=O)O)n2ccc(C)n2)cc1 (stereo not given),0,2,0,1,0,5,1.1,-20
COc1ccc(CN2CCN(C(=O)CC(C)C)CC2)cc1OC,5,9,4,1.1,5,-2,1.2,-26

# Some of the entries so far, with two lines to a compound:
# Below each compound – HEK293 NFkB inh, PKA inh, ROCK2 inh, A340 absorber, JNK3 inh, MMP13 inh, Fluor 339 460, Ecoli tolC
NC(=O)c1ccccc1NS(=O)(=O)c1cccs1
→ 2, 6, 5, 1.1, 4, -6, 1.3, 2
CCOc1ccc(OCC)c(NC(=O)C2CCN(S(=O)(=O)c3cnc[nH]3)CC2)c1
→ 6, -2, 0, 0.99, -1, 0, 1, -24
COc1ccccc1N1CCN(C(=O)CSc2nnc(-c3ccoc3C)o2)CC1
→ 4, -5, -2, 0.99, -7, 5, 1.1, 15
O=C1c2cccnc2C(O)N1Cc1ccco1 (stereo not given)
→ 3, 12, 10, 1, 5, 5, 1.1, -11
O=C(NC1CCCCC1)Sc1ccc(Cl)cc1
→ 4, 8, 0, 0.92, 15, 0, 1.1, 12
CCn1ccc(C(=O)Oc2ccc(C(C)C)cc2)n1
→ 7, 4, 3, 1, -7, 2, 1, 16
COc1ccc(C(=O)N2CCOCC2)cc1Br
→ 14, 9, 7, 1, 5, 0, 1.1, -10
COc1cccc2c(=O)cc(C)n(CC(=O)Nc3ccc(C)c(C)c3)c12
→ 14, -5, 2, 0.99, 0, -8, 1.1, 28
CS(=O)(=O)N(CC(=O)N1CCN(c2ccccc2)CC1)c1cc(C(F)(F)F)ccc1Cl
→ ., ., ., 1, ., ., 1.1, 4
O=C(CCS(=O)(=O)c1ccc(Br)s1)N1CCc2ccccc21
→ 1, 8, 7, 1, 1, 0, 1.1, 20
CCCCn1nnnc1SCC(=O)Nc1cccc(C)n1
→ 16, -3, -3, 0.98, 1, -3, 1, -11
Cn1c(N)c(C(=O)COC(=O)Cc2ccsc2)c(=O)n(C)c1=O
→ 17, 9, ., 0.99, ., 4, 1.1, -8
CCOC(=O)c1ccc(NC(=O)CSCc2ccco2)cc1
→ -8, 3, 3, 0.98, -1, 2, 1, 5
CCN(CC)CCOc1ccc(Br)cc1
→ 3, 9, 6, 1.1, -1, 4, 1.1, -9
COC(=O)CSC1=C(C#N)C(c2ccc(C(C)C)cc2)CC(=O)N1 (stereo not given)
→ 15, -2, 4, 1, 0, 0, 1.1, 0
c1coc(-c2nnc3n2C2(CCCC2)Cc2ccccc2-3)c1
→ 23, 8, 5, 1, 4, -5, 1.1, 7

# (list continues)
SMILES,HEK293 NFkB inh,PKA inh,ROCK2 inh,A340 absorber,JNK3 inh,MMP13 inh,Fluor 339 460,Ecoli tolC
O=P(O)(COc1ccccc1)COc1ccccc1,13,8,5,1.1,1,1,1.1,-6
CCSc1nnc(NC(=O)c2ccc3c(c2)OCO3)s1,-52,2,2,1.1,5,-10,1.1,0
COc1ccccc1-c1nc2s/c(=C\c3cccs3)c(=O)n2n1,-4,7,11,1.1,4,-3,1.1,-8
CCOC(=O)N1CCN(Cc2ccccc2Cl)CC1,2,-3,2,1.1,1,4,1.1,-11
Cc1ccc(-c2nc(N)n(C(=O)c3cccnc3)n2)cc1,21,-2,1,1.1,5,-4,1.1,-4
O=c1c2cccc3c(N4CCOCC4)ccc(c32)c2nc3ccccc3n12,5,-5,-3,1,-4,-1,1.1,-18
Cc1cc(C)nc(N2CCC(C(=O)NCCc3ccccc3)CC2)n1,7,12,6,0.99,-5,-14,1.2,-4
CCOC(=O)C1C(=O)Nc2nc3ccccc3n2C1C(C)C (stereo not given),10,1,-2,1,-5,0,1.1,-25
CCOc1ccc(C2CC(c3ccc(CC)cc3)Nc3nc(N)nn32)cc1 (stereo not given),16,-10,0,1.1,-3,-1,1.1,11
O=C(CSc1nnc(-c2ccccn2)n1-c1ccccc1)Nc1ccc2c(c1)OCO2,7,5,6,1,-8,-4,1.1,-22
CC(C)c1nnc(NC(=O)C2CCCN2S(=O)(=O)c2ccc(Cl)cc2)s1 (stereo not given),20,-1,-1,0.99,2,0,1.1,-5
COC(=O)Nc1ccc(S(=O)(=O)N2CCN(C)CC2)cc1,13,13,6,1,-1,3,0.96,-13
Cc1nn(Cc2ccccc2)c(C)c1C(=O)OCC(=O)c1cc(C)n(C2CC2)c1C,14,11,3,1,3,2,1.1,65*
O=C(OCCN1C(=O)c2ccccc2C1=O)c1ccc(S(=O)(=O)N2CCCCCC2)cc1,16,6,4,0.99,4,-4,1,3
Cc1cnc(C(=O)Nc2ccccc2-n2cccc2)cn1,24,2,1,1,0,-1,0.99,-11
CC(=O)Nc1nonc1-c1nc2ccccc2n1Cc1ccccn1,18,10,2,1,-6,-7,1.4,-9
COc1ccc(Nc2cccccc2=O)cc1,.,.,.,1.2,.,.,1.1,7
COc1ccc(N2CCN(C(=O)c3ccc(C)cc3Cl)CC2)cc1,4,1,8,1,3,5,1.1,14
O=C(NC1CCN(Cc2nnnn2CCc2ccccc2)CC1)c1ccccc1F,-2,3,6,1.1,4,-12,1.1,-7
CCOc1cc(CN2CCSCC2)ccc1O,-1,8,5,1.1,-3,7,1.1,10

# From PubChem BioAssay
